Sa RN4220 lethal: S. aureus RN4220 growth inhibition | OD600, 16 h | 330,000 tested, 0.33% active | inhibition, % (no concentration beside the values);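 active = z-score of -3 or lower and OD600 up to 0.18 on both plates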;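 also: plate controls were untreated cells for no effect and reference antibiotic for full effect; stock transfer was 100 nL into about 80 µL; one replicate is shown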
Bead autofluor: flagged as autofluorescent in microsphere protease counterscreen; compound autofluorescence counterscreen, microsphere flow cytometry; stronger effect = higher value; fluorescence intensity (no concentration beside the values); 360,000 tested, 3.1% active; AID 624483;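 active = at least 3 SD above the mean of all compounds, about 16000 in these data; inconclusive = too few beads counted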;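 also: 100 nL of 1 mM stock went into each well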
Mtb hypoxia inh: inhibitors of hypoxia-regulated fluorescent reporter in Mycobacterium tuberculosis. M. tuberculosis hypoxia-regulated fluorescent reporter, fluorescence. fluorescence inhibition, % (no concentration beside the values). 300,000 tested, 0.1% active. AID 1159583;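 active = 35 to 45% if threefold the growth effect, above 45% if 1.5-fold the growth effect; inactive = the rest, general growth blockers included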;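 also: wells of about 50 µL received 100 nL stock; 0% = vehicle wells and 100% = reference inhibitor wells; whole bacteria with a GFP reporter of the hypoxia response; strong numbers were not always called active; many hits fall short of the cut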
ugtP null kill: kills S. aureus RN4220 lacking UgtP; AID 1259309; growth inhibition, % (test concentration not listed); S. aureus RN4220 ugtP deletion, OD600 growth, 16 h; some inactives read as strong as hits; 330,000 tested, 0.54% active;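 active = z-score under -3 and OD600 up to 0.15 on both plates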;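 also: plate controls were untreated wells for no effect and antibiotic for full effect; wells of about 80 µL received 100 nL stock; the first replicate is given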
PrP UTR inh: suppresses PrP 5' UTR mRNA reporter expression; inhibition, % (no concentration beside the values); 340,000 tested, 0.35% active; cell-based PrP 5' UTR mRNA reporter, plate reader;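 active = every replicate at 50% or more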;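 also: 0 = median of the neutral control wells; tested in H4 reporter cells; numbers are from one replicate; inactives centre near -14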
BJeLR viability: kills HRASV12-expressing BJeLR cells. BJeLR (HRASV12) viability, CellTiter-Glo ATP luminescence, 48 h; reference of the scale not given here. inhibition, % (concentration not given with the values). 300,000 tested, 0.17% active;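 active = replicate mean above 50%; inconclusive = above 50% but judged a plate artefact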;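 also: 50 nL library stock added to about 25 µL; numbers are from one replicate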
Mtb hypoxia inh growth: recorded beside Mtb hypoxia inh, whose call it bears; growth inhibition, %; measured here: M. tuberculosis growth (absorbance);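 0% = vehicle and 100% = reference antibiotic; read after six days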
Numbers without * were called inactive; ? = inconclusive; . = no result given; & = joins results of further samples.

Under each structure: Sa RN4220 lethal, Bead autofluor, Mtb hypoxia inh, Mtb hypoxia inh growth, ugtP null kill, PrP UTR inh, BJeLR viability
> CC1CN(C(C)CO)C(=O)c2cc(NC(=O)Nc3ccc(F)cc3)ccc2OC1CN(C)Cc1ccccc1 (stereo unspecified)
 : 2.1, ., 5, 10, 5, ., .
> CN1CCN(Cc2c(O)ccc3c(-c4ccccc4)cc(=O)oc23)CC1
 : 0.7, 23428*, 13, 6, 6, -9, 0
> CC(=O)Nc1cc(S(=O)(=O)C(F)(F)F)ccc1Cl
 : 4.5, 4069, ., ., 4, -13, -1
> C=CCN1CCS(=O)(=O)N(Cc2ccccc2)[C@@H](C(C)C)C1=O
 : 2.3, 2930, 6, 6, 5, -3, .
> O=C(CCS(=O)(=O)Cc1ccccc1)N1CCc2ccccc2C1
 : -0.2, 21963*, 5, 1, 1, -18, 1
> CCN(CC(=O)Nc1ccccc1C(F)(F)F)C(=O)c1cccc(S(=O)(=O)N2CCN(C)CC2)c1
 : 0.1, ?, 6, -11, 14, -21, 12
> COc1ccc(S(=O)(=O)Nc2cccc(-c3ccc(N4CCCCCC4)nn3)c2)cc1OC
 : -0.3, 6030, 7, 3, 14, -35, 1
> O=C(COC(=O)c1cncc(Br)c1)NCc1ccc(Cl)cc1
 : 2.4, 3899, 13, 1, 2, -11, -6
> C[C@@H](C(=O)Nc1ccc2ccccc2c1)[C@H]1C[C@]1(C)[C@H](NC(=O)OCc1ccccc1)c1ccccc1
 : ., 4277, ., ., ., -22, -1
> CCOC(=O)N1CCC(NC(=O)c2ccc3c(c2)N(Cc2ccccc2)CCS3)CC1
 : -7.4, 5327, ., ., -6, 2, -5
> O=C(Nc1cc(Br)ccc1O)c1cnn2c(C(F)F)cc(C3CC3)nc12
 : -5.2, 3609, 7, 1, -15, 8, 10
> COc1ccc(CC(=O)Nc2nc(-c3cc(OC)ccc3OC)cs2)cc1
 : -1.7, 4770, 5, -8, 3, -5, 0
> Cc1ncc([N+](=O)[O-])n1Cc1cccc(F)c1
 : ., 4720, ., ., ., -26, -6
> COc1ccc(CNC(=O)CC(C)=NNC(=O)c2ccc([N+](=O)[O-])cc2Cl)cc1
 : 2.0, ., 1, 14, 1, ., .
> COc1cc(C(=O)NCc2nnc(SCC(=O)Nc3c(C)cc(C)cc3C)o2)cc(OC)c1OC
 : 3.3, 5532, -2, -6, 5, 6, -8
> Cc1noc(C)c1S(=O)(=O)NCc1ccc2c(c1)OCO2
 : -3.5, 4710, 7, 5, 1, -26, 14
> O=C1CNC(=S)N1CCOc1ccccc1
 : 1.6, 4001, 5, 2, 7, -55, 1
> C/C=C1\NC(=O)[C@H](CC(N)=O)N(C)C(=O)C([C@@H](C)O)NC(=O)C(CCCc2ccc(OC)cc2)NC(=O)[C@H](C(C)C)NC(=O)/C(=C\C)NC(=O)[C@H](O)[C@@H](C[C@@H](O)CCCCCCC)NC(=O)[C@H](C)NC(=O)CN(C)C(=O)[C@H](CCC(N)=O)NC1=O (stereo partly specified)
 : -0.2, 3568, 1, 12, 6, -17, .
> CCc1nc(SCC(=O)Nc2nnc(CC)s2)c2c(=O)n(C)c(=O)n(C)c2n1
 : 0.6, 5917, 3, 33, 1, 7, 2
> CCn1cc(C(=O)NCCC(C)C)c(=O)c2cc(S(=O)(=O)N3CCCCC3)ccc21
 : -1.6, 4741, -2, 1, 3, -21, 4

Shown with each value named: part of the list above
O=C(Nc1cc(Br)ccc1O)c1cnn2c(C(F)F)cc(C3CC3)nc12
  Sa RN4220 lethal: -5.2; Bead autofluor: 3609; Mtb hypoxia inh: 7; Mtb hypoxia inh growth: 1; ugtP null kill: -15; PrP UTR inh: 8; BJeLR viability: 10
COc1ccc(CC(=O)Nc2nc(-c3cc(OC)ccc3OC)cs2)cc1
  Sa RN4220 lethal: -1.7; Bead autofluor: 4770; Mtb hypoxia inh: 5; Mtb hypoxia inh growth: -8; ugtP null kill: 3; PrP UTR inh: -5; BJeLR viability: 0

Remaining list, next part:
Under each structure: Sa RN4220 lethal, Bead autofluor, Mtb hypoxia inh, Mtb hypoxia inh growth, ugtP null kill, PrP UTR inh, BJeLR viability
> Cn1cc(Br)c(C(=O)N2CCc3ccccc32)n1
 : 9.2, 10844, 10, 4, 30, -16, 5
> CCOc1cccc(C=NN2C(=O)CSC2=S)c1O
 : 2.3, ., 1, 10, 5, ., .
> O=C1c2ccccc2C(=O)C1(CO)c1ccc(OC(F)F)cc1
 : 11, 4439, -4, -5, -2, -24, 1
> O=C(NCC(=O)N1CCN(c2ccccc2O)CC1)c1cccs1
 : 2.7, 4920, 0, -9, 10, -54, -4
> CC1CCN(c2nc3c(c(=O)[nH]c(=O)n3C)n2CCSc2nc3ccccc3o2)CC1
 : -1.6, ., -6, 3, -6, ., 3
> Cc1ccc(C=NNC(=O)C2(O)c3ccccc3-c3ccccc32)o1
 : 2.7, ., 1, 13, 9, ., .
> COc1ccccc1NS(=O)(=O)c1cccc(NC(=O)NCCCl)c1
 : 1.0, 4431, -4, 11, -3, -21, 10
> Cc1ccc(S(=O)(=O)N2CCC(C(=O)Nc3ccncc3)CC2)cc1
 : 4.7, ?, -3, -2, 1, -4, 8
> CC(C)(C)C(=O)NC(=S)N1CCc2ccccc21
 : 5.0, 4592, 15, 4, 5, -2, 6
> CN(Cc1ccccc1)c1ncnc2sccc12
 : 7.1, 3844, -3, 5, 12, -32, -9
> Cc1ccc(-c2cc(C(=O)O)c3ccccc3n2)c(C)c1
 : 5.1, 3579, 5, 5, -1, -10, -11
> COC(=O)COc1ccc(S(=O)(=O)NCc2cccnc2)cc1
 : 0.8, 3983, 10, 0, 3, -19, -7
> COc1ccc(-c2noc(N3CCC(C(=O)Nc4ccccc4Cl)CC3)n2)cc1
 : -8.8, 5170, 10, 9, 0, -14, 3
> COc1ccccc1C(=O)NC(=Nc1nc2ccccc2o1)NC(=O)c1ccccc1OC
 : 4.4&6.8, 4320, -10&-7, -6&9, -24&-21, 2&-21, 5
> CCC(C)n1c(O)c(/C=N/N2CCOCC2)c(=O)[nH]c1=S (stereo unspecified)
 : 6.6, 2530, 3, 9, 8, -14, 3
> Cc1ccc(C(=O)OCC(=O)Nc2ncc(C(F)(F)F)cc2Cl)cc1NC(=O)c1ccco1
 : 7.3, 20917*, -2, 7, -10, -26, -7
> Cc1sc2ncnc(Oc3ccc(-n4ccnc4)cc3)c2c1C
 : 1.7, 2804, ., ., 4, -13, 6
> O=C(c1ccc(F)cc1)N1CCC(c2ccccc2)C1 (stereo unspecified)
 : 2.7, ., ., ., 9, -50, -9
> CCc1ccc(CN(C)C(=O)CCc2nc3ccccc3n(-c3ccc(OC)cc3)c2=O)cc1
 : 3.0, 4623, -3, 5, 7, -2, 7
> CN(C)S(=O)(=O)c1ccc2[nH]cc(/C=C/c3nc4ccccc4c(=O)n3-c3ccccc3)c2c1
 : 10.0, 15977, 4, 4, -12, -17, -1

Limited to Mtb hypoxia inh, Mtb hypoxia inh growth and Sa RN4220 lethal (two entries from above):
Compound,Mtb hypoxia inh,Mtb hypoxia inh growth,Sa RN4220 lethal
COc1ccccc1NS(=O)(=O)c1cccc(NC(=O)NCCCl)c1,-4,11,1.0
Cn1cc(Br)c(C(=O)N2CCc3ccccc32)n1,10,4,9.2

Continuation:
Under each structure: Sa RN4220 lethal, Bead autofluor, Mtb hypoxia inh, Mtb hypoxia inh growth, ugtP null kill, PrP UTR inh, BJeLR viability
> CC(NC(=O)c1cccc(C(F)(F)F)c1)C(c1ccccc1)N1CCOCC1 (stereo unspecified)
 : 6.1, 3727, 6, 6, 5, -14, -1
> Cc1ccc2c(c1)NC(=O)C(CC(=O)NCCN(CC(C)C)CC(C)C)O2 (stereo unspecified)
 : 3.0, 4424, ., ., 3, -39, -6
> COc1ccc(C(CC(=O)NCc2ccccc2)Sc2n[nH]c(-c3ccc(Cl)cc3)n2)cc1 (stereo unspecified)
 : 2.1, 2653, 11, -4, -1, -34, -12
> CC[C@]12c3[nH]c4ccc(OC)cc4c3CCN1C(=O)C(CC(=O)NCCCOC)C[C@@H]2C(=O)N1CCN(C(=O)c2ccco2)CC1 (stereo partly specified)
 : 3.6, 2944, -10, 2, 2, -27, .
> COc1ccc(-c2cn(-c3ccc(Cl)cc3)c3[n+]2CCCCC3)cc1
 : 3.0, 5853, 18, -4, 4, -28, 12
> O=C1C=C(Nc2ccc(O)cc2)C(=O)c2ccccc21
 : 35, 3230, -8, -10, 3, -72, 24
> CCCCn1cnc2c(SCc3ccccc3)nc(N)nc21
 : 4.2, 4161, 24, 16, 5, -31, .
> CCOC(=O)C1=C(CSc2nccn2C)NC(=O)NC1c1cc(C)ccc1C (stereo unspecified)
 : 5.4, 16485*, -5, -1, -2, -6, 5
> O=c1c2cc(F)ccc2[nH]c(=S)n1CCCN1CCOCC1
 : 4.6, 15796, 10, 7, 5, 26, 0
> COc1ccccc1/C=C/C=C(\C#N)C(=O)NC(C)c1ccccc1 (stereo unspecified)
 : -1.3, 3635, 9, 2, -3, -6, -5
> COc1ccc(OC)c(NC(=O)CN(C)S(=O)(=O)c2ccc(Cl)cc2)c1
 : 9.1, 3996, 15, 0, 0, -15, -2
> Cc1cc(NCCO)nc(N2CCOCC2)n1
 : 1.5, 4630, ., ., 6, -21, 2
> O=C(O)c1cccc(NC(=O)c2cn(-c3ccccc3)nc2-c2ccncc2)c1
 : 5.3, 2525, 11, -5, 7, -2, -4
> COc1ccc(CNC(=O)CN(Cc2cccs2)C(=O)CCC(=O)Nc2ccccn2)cc1
 : -1.9, 4167, -1, 4, 1, -24, .
> CS(=O)(=O)c1ccc(C(=O)OCC(=O)NC(=O)C2CCCCC2)cc1[N+](=O)[O-]
 : 2.0, 4173, 7, 7, 2, -28, 5
> CCCCCN(C(=O)CCC(=O)OCC(=O)c1ccc(C(C)CC)cc1)c1c(N)n(CCCC)c(=O)[nH]c1=O (stereo unspecified)
 : 0.6, 5025, -16, -7, -1, 5, -6
> CC(NC(=O)c1nc[nH]c1C(=O)N1CCN(c2ccccc2)CC1)C(=O)OC(C)(C)C (stereo unspecified)
 : -1.9, ., -3, 7, -6, ., .
> Cc1cc2c(c(=O)n1Cc1cccnc1)C(c1ccc(F)cc1)C(C#N)=C(N)O2 (stereo unspecified)
 : -14, 2881, 15, 15, 3, -10, 15
> COc1ccc(S(=O)(=O)N(C)C)cc1NCC(=O)Nc1cccc2ccccc12
 : 1.3, 4159, 3, 13, 2, -14, 0
> OCCN1CCOCCN(CCO)CCN(CCO)CC1
 : 0.3, 4538, ., ., 3, -4, -4

(next part)
compound,Sa RN4220 lethal,Bead autofluor,Mtb hypoxia inh,Mtb hypoxia inh growth,ugtP null kill,PrP UTR inh,BJeLR viability
Cc1ccc(NC(=O)C2CCN(c3cnccn3)CC2)cc1,2.7,4756,3,3,6,-8,4
CCc1c(C)[nH]c2ccccc2c1=O,1.5,4460,.,.,0,-7,.
S=C(Nc1ccc(Br)cc1Cl)N1CCCC1,-0.7,5555,2,2,1,-51,-3
CSc1nc2c(c(=O)[nH]1)C(c1ccc(C(F)(F)F)cc1)CC(=O)N2 (stereo unspecified),4.3,4423,9,7,-3,-15,2
CC(C)(C)n1ncc2c(=O)n(Cc3cccc(Cn4cnc5c(cnn5C(C)(C)C)c4=O)c3F)cnc21,2.3,4121,-1,0,-3,0,.
O=C(CCCNC(=O)/C(=C/c1ccc(Br)cc1)NC(=O)c1ccccc1)OCc1ccccc1,5.6,2404,12,5,10,-6,-3
COc1cccc(-n2nnnc2SCC(=O)Nc2ccc(C(C)=O)cc2)c1,-0.9,3999,2,1,-6,-13,-1
Cc1ccc(NC(=O)COC(=O)Cc2ccsc2)cc1S(=O)(=O)N1CCOCC1,2.2,2508,17,10,-2,-3,9
COc1ccc([N+](=O)[O-])cc1NC(=O)Cc1noc2ccc(C)cc12,9.3,4313,14,5,3,10,-2
CC(C)c1ccc(/C=C/C2=NNC(=O)CC2)cc1,0.4,3558,2,13,-5,-7,5
Cc1cccc(NC(=O)C2CC(=O)OC23CCCCC3)c1 (stereo unspecified),3.5,4534,.,.,-3,-7,-4
O=C(Nc1ccc(OC(F)(F)C(F)F)c(NC(=O)c2ccc(F)cc2)c1)c1ccc(F)cc1,6.2,3734,-2,7,-15,-30,8
CCN(C(=O)c1ccc(Cl)c(S(=O)(=O)Nc2c(C)n(C)n(-c3ccccc3)c2=O)c1)c1ccccc1,7.0,.,11,3,5,-2,.

From PubChem
